Bioassay records as filed in PubChem.
HIV Env fusion – inhibitors of HIV Env-mediated cell fusion; HeLa-JRFL Env/CEM21 cell fusion, luciferase; 360,000 compounds, 1.1% hits; inhibition, % at 12.3 µM; AID 651610;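 active = mean replicate inhibition score of at least 50 and every replicate individually at or above 50; inconclusive = only one of the two criteria met; inactive = mean below 50 and not all replicates reaching 50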;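 also: 0% = plate neutral controls and 100% = maraviroc near 300 nM; one replicate is shown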
UUG fidelity – alters start codon recognition fidelity in yeast | AID 602363 | 350,000 compounds, 0.13% hits | S. cerevisiae UUG-firefly luciferase reporter, luminescence/redox ratio | activity score, % at 18.7 µM;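 active = replicate mean at a twofold rise or more, about +100% in these data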;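 also: firefly luciferase made from a UUG start codon reports start codon fidelity; reporter light over untreated wells divided by growth signal over untreated wells; some hits fall short of that in this replicate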
CSC inhib – blocks cancer stem cells | cancer stem cell-like cells viability, luminescence | inhibition, % at 7.5 µM | 300,000 compounds, 1.1% hits;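 active = mean at 75% or more and at least half the replicates too; inconclusive = mean and replicates disagree; tested in HMLE shEcad cells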;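 also: 0% = median of negative and 100% = median of positive control wells; the first replicate is given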
Rce1 inh – yeast Ras-converting enzyme inhibition | Q03530 | yeast membranes, quenched prenylated peptide cleavage fluorescence | calls only | 290,000 compounds, 0.27% hits;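 active = fall in fluorescence gain of 50% or more versus controls, with final raw signal at or below 3038400; inconclusive = same 50% fall but final raw signal above 3038400; inactive = fall in fluorescence gain under 50%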;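 also: plate controls were neutral control wells for no effect and wells lacking membranes for full effect; tested at 10 µM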
eIF4H FP inh – inhibitors of RNA binding by human eIF4H; inhibition, % at 35 µM; 290,000 compounds, 0.94% hits; Q15056; AID 2012; eIF4H fluorescence polarization binding assay;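 active = 50% or more with normal probe brightness, or confirmed in later tests; inconclusive = above 50% with abnormal brightness, or retests that disagree; inactive = below 50% or failed in later tests; about a fifth of its hits are not listed in these tables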;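 also: calls also rest on retests at 20 µM and on dose response follow-up; 0% = protein and probe with vehicle and 100% = probe without protein; strong numbers were not always called active; many hits fall short of the cut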
MT1-MMP act inh – MT1-MMP (human) activation inhibition; P50281; HT1080 RFP-PRO-GFP cells, GFP/RFP ratio fluorescence, overnight; percent of plate control window, DMSO zero; GFP/RFP ratio change, % at 20 µM; 360,000 compounds, 0.061% hits;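 active = GFP/RFP ratio change of at least 30% with cell ATP level not reduced by more than half and red fluorescence within 50% of control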; also: strong numbers were not always called active
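Assay system: RFP-PRO-GFP reporter HT1080 cells; read-out basis: GFP/RFP fluorescence ratio; benchmarks: DMSO wells and RFP-L50D-GFP cells; doses: 20 µM single dose, 1% DMSO; schedule: overnight cell settling, then overnight compound exposure, 37 °C, 5% CO2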
PABP FP inh – PABP-poly(A) binding inhibition; P11940; PABP-poly(A) RNA binding, fluorescence polarization; inhibition, % at 35 µM; 290,000 compounds, 1% hits; AID 2014;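 active = 50% or more with normal probe brightness, or confirmed in later tests; inconclusive = above 50% with abnormal brightness, or retests that disagree; inactive = below 50% or failed in later tests; about a fifth of its hits are not listed in these tables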;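 also: calls also rest on retests at 20 µM and on dose response follow-up; controls were probe without protein and protein plus probe with vehicle; some compounds called inactive have numbers as strong as hits; many hits fall short of the cut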
Target sequence (P11940 whole entry, looked up): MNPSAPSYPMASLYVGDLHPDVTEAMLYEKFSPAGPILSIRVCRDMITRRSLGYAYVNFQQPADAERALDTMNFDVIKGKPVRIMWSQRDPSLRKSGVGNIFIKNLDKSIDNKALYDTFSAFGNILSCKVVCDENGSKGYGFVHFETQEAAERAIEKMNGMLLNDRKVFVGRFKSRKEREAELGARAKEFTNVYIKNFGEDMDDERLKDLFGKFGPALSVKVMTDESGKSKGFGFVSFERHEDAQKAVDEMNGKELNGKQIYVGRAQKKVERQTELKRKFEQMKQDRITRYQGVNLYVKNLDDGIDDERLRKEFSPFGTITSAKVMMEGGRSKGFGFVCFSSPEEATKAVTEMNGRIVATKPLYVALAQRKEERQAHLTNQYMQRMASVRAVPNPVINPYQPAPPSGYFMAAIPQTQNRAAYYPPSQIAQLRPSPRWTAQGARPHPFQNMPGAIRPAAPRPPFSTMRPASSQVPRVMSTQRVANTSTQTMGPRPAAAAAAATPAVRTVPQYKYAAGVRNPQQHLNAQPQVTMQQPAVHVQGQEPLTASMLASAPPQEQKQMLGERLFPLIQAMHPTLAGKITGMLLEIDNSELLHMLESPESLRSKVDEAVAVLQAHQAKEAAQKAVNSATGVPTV
MT1-MMP act inh RFP – second read-out of MT1-MMP act inh, no call of its own (marks repeat the call); RFP signal change, %; measured here: RFP expression control read;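 0 = vehicle wells; hits needed this value within 50% of zero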
* hit, by the source's call; i = inactive; ? = inconclusive; nt = not tested or not shown; & = joins results of further samples; [ ] = another dose, or the depositor's remark.

Structure,HIV Env fusion,CSC inhib,PABP FP inh,UUG fidelity,MT1-MMP act inh RFP,MT1-MMP act inh,Rce1 inh,eIF4H FP inh
O=[N+]([O-])c1ccc(Cl)c(S(=O)(=O)Nc2cccc(S(=O)(=O)NC3=NCCC3)c2)c1,-3,-8,nt,-1,5,5,nt,nt
COCCn1c(C)cc(C(=O)COC(=O)CNC(=O)c2ccco2)c1C,20,nt,nt,-24,4,2,nt,nt
CCOC(=O)N1CCN(Cc2nc3cc(NC(=O)C(C)C)ccc3n2CC)CC1,-15,-8,-8,-17,4,-1,i,3
Cn1c(NC(=O)C[n+]2cc(-c3ccc(Cl)cc3)n3c2CCC3)cc(=O)n(C)c1=O,4,5,14,nt,1,0,i,0
COc1ccc(CCN(C)Cc2ccc(OCc3ccccc3)c(OC)c2)cc1OC,-6,5,2,-13,1,0,i,11
S=C(Nc1ccc2nccnc2c1)N1CCOCC1,-9,-6,6,-17,2,-2,i,-4
O=C1CC(N2CCN(c3cccc(C(F)(F)F)c3)CC2)C(=O)N1c1ccccc1F (stereo not drawn),nt,3,2,-11,1,2,i,0
COc1ccccc1C(=O)COC(=O)COc1ccc(C#N)cc1,-62,2,nt,-4,3,-1,nt,nt
Cc1cc(NC(=O)CCC(=O)N(c2ccccc2C)C(C(=O)NC2CCCC2)c2ccccc2)no1 (stereo not drawn),5,nt,10,-1,-2,-2,i,2
Cc1c(Cl)cccc1NC(=S)NC(=O)c1cncc(Br)c1,14,8,nt,nt,2,0,i,nt
O=C(Nc1cccc(-c2ccc(N3CCCCC3)nn2)c1)C(F)(F)F,68*,32,-3,-23,0,1,i,-4
O=C1NC(=S)N/C1=C/c1cccc([N+](=O)[O-])c1,5,-19,3,nt,1,1,i,-5
CCOC(=O)c1cccc(N2C(N)=NC(N)=NC2(C)C)c1,nt,-41,-6,-10,2,-2,i,4
COc1cc(NC(=O)CCCNC(=O)c2ccc(Cl)cc2)cc(OC)c1OC,-14,-8,8,-4,2,3,i,7
CC12CCC(O)CC1=CCC1C2CCC2(C)c3[nH]ncc3CC12 (stereo not drawn),-19,nt,nt,-14,-4,0,nt,nt
Cc1cc(SCC(=O)c2cccs2)nc2ccccc12,-206,2,32,-12,2,-10,i,-15
CCNC(=S)N1CCN(c2nc(-c3cccc(OC)c3)cs2)CC1,18,-10,5,5,-9,3,i,-2
O=S1(=O)C[C@H](N2CCN(CC3CC3)CC2)[C@@H](COCc2ccccc2)N1,-106,nt,nt,-6,5,1,nt,nt
CC(C)(C)c1ccc(OCc2nnc(SCC(N)=O)n2N)cc1,7,5,14,nt,2,1,i,-17
Cc1c(NC(=O)C(C)OC(=O)c2cc(-c3cccc4ccccc34)nc3ccccc23)c(=O)n(-c2ccccc2)n1C (stereo not drawn),-5,4,3,nt,0,0,i,?
Nc1nnc(SCC(=O)c2ccccc2)s1,nt,-8,-5,-21,1,0,i,12
Cc1cccc(OC(=O)CN2C(=O)C3C4CCC(C4)C3C2=O)c1C (stereo not drawn),-37,-20,-15,0,2,-6,i,-3
NS(=O)(=O)c1ccc(CCNC(=O)c2cnccn2)cc1,-11,-7,4,-16,0,-1,i,-3
O=C(CSc1nnc2scc(-c3ccccc3)n12)NCc1ccc2c(c1)OCO2,-15,-9,-10,-5,2,6,i,-4
O=C1C2C3C=CC(C2C(=O)N1C1CCCCC1)C1C2C(=O)N(C4CCCCC4)C(=O)C2C31 (stereo not drawn),nt,-12,2,2,-1,12,i,-6
Cc1cc(C(F)(F)F)nc(SCC(=O)c2cccc([N+](=O)[O-])c2)n1,24,nt,-2,-5,-2,-1,i,-7
COC(=O)c1c(NC(=O)Cc2ccc(OC)c(S(=O)(=O)N3CCOCC3)c2)sc(C)c1C,17,-8,nt,nt,-10,-7,i,nt
Cc1ccc(Cn2c(=O)c3ccccc3n3c(CCC(=O)NCCN4CCOCC4)nnc23)cc1,nt,-17,-6,-8,3,1,i,-1
Cc1ccc(OCCOCCN(C)C)c(Cl)c1,0,nt,-2,nt,0,2,i,10
O=C(N1CCCC1)C12CC3CC(CC(Cl)(C3)C1)C2,12,-8,8,-11,0,-2,i,9
O=C(Nc1cc(C(F)(F)F)ccc1N1CCOCC1)c1cnccn1,29,nt,-11,-10,-4,-5,i,-5
CCOC(=O)CSc1nc2ccc(C)cc2[nH]1,nt,-3,-7,-14,4,5,i,-6
O=C(Nc1ccc(Oc2ncnc3cc(Cl)ccc23)nc1)Nc1cccc(C(F)(F)F)c1,-7,-5,0,-20,-3,0,i,-10
CC1CN(C(=O)c2cc(S(=O)(=O)N3CCCCC3)ccc2Cl)CC(C)O1 (stereo not drawn),-1,nt,nt,17,0,1,nt,nt
CC1=CC2=C(OC1N(C)C)c1cccc3cccc(c13)C2=O (stereo not drawn),nt,27,?,-9,13,-40,i,?
CCOC(=O)c1sc2nc(Cc3ccc(Cl)cc3)[nH]c(=S)c2c1C,13,-1,-10,nt,1,5,i,-6
O=C(CCc1nc2ccccc2s1)OCC(=O)c1ccc[nH]1,-6,4,-11,-17,6,1,i,2
CCOc1ccc(-c2nnn(CC(=O)c3ccc4c(c3)OCCO4)n2)cc1,nt,-10,-9,-15,2,-1,i,6
CCOCCCNC(=O)c1ccc(OC(C)=O)cc1,-39,-9,12,-18,3,4,i,-6
O=c1[nH]c(Cc2cccc(C(F)(F)F)c2)nc2ccccc12,10,-1,-1,nt,-1,1,i,-10
Clc1ccc(NCc2nncn2-c2ccccc2)cc1,nt,35,1,-12,0,3,i,5
O=C(Nc1nnc(SCC(=O)N2CCCC2)s1)C1CC(=O)N(c2ccccc2)C1 (stereo not drawn),-18,19,0,-8,0,-3,i,-11
COc1cc2c(cc1NC(C)=O)CCCC2,13,4,4,-29,8,7,i,-1
CCCC1C(c2ccccc2)C(C#N)(C#N)C2(C#N)CC1(N)NC2=O (stereo not drawn),nt,-6,8,-11,-1,-7,i,15
Cc1cccc(C2=N/C(=C\c3cccs3)C(=O)O2)c1,-4,5,-7,nt,1,1,i,-4
O/N=C1\CCCc2ccc3ccccc3c21,-2,-8,-10,4,1,0,i,2
COc1cc(C(=O)Nc2nc(N)n(-c3ccccc3)n2)cc(OC)c1OC,nt,-14,-5,-24,2,-1,i,-8
O=C(CNCc1ccccc1)Nc1ccc(F)cc1,-6,-6,-11,-1,-2,1,i,-6
Cc1cccc(NC(=S)Nn2cnnc2)c1C,20,-9,6,nt,6,1,i,4
O=C(COc1ccc(Cl)cc1)NNC(=O)c1ccncc1,-19,nt,nt,-13,8,6,nt,nt
Cc1cccc(C(=O)Oc2csc(=S)n2C(=O)c2cccc(C)c2)c1,26,nt,0,-36,14,19,nt,7
CC1CCN(c2nc3ccccc3nc2C(C#N)C(=O)OC2CCCCC2)CC1 (stereo not drawn),nt,nt,13,-3,-9,-88,i,9
O=C(Nc1nc2ccccc2n1CCOc1ccc(Cl)cc1)c1ccco1,nt,24,-14,-18,-21,-11,i,-2
COc1ccc(OC)c(C2=NS(=O)(=O)N(C)C(C(=O)N3CCC4(CC3)OCCO4)=C2)c1,4,-14,0,-7,4,2,i,-9
CC(=O)c1cccc(NC(=O)CN(c2ccccc2F)S(C)(=O)=O)c1,nt,-2,18,-14,1,2,i,-1
Cn1ccnc1SCC(=O)Nc1ccc(Cl)cn1,12,-16,-1,nt,0,-2,i,3

Carrying on:
Structure,HIV Env fusion,CSC inhib,PABP FP inh,UUG fidelity,MT1-MMP act inh RFP,MT1-MMP act inh,Rce1 inh,eIF4H FP inh
COc1ccc(N(CC2CO2)S(=O)(=O)c2ccc(C)cc2)cc1 (stereo not drawn),-6,-4,10,-25,4,0,nt,8
Cc1ccc(C2CN(C)C3(C(=O)Nc4ccccc43)C23COc2ccccc2C3=O)cc1 (stereo not drawn),?,10,-4,-9,-7,-13,i,3
CCOC(=O)c1c(N)n(C2CC(C)(C)NC(C)(C)C2)c2nc3ccccc3nc12,nt,-8,-8,-23,3,10,i,-7
O=C1NC2(CCCC2)N=C1c1ccc(F)cc1,-10,-6,-3,-13,9,4,nt,3
COC(=O)Cn1c(=NC(=O)c2ccc(Cl)s2)sc2cc(F)ccc21,4,-13,-7,nt,0,3,i,-6
CCOc1ccccc1NC(=O)C1CC(=O)n2ncnc2N1 (stereo not drawn),-37,0,-4,-17,4,4,i,1
O=C(Nc1ccccc1)C1=C[C@H](c2coc3ccccc3c2=O)C[C@H](OCCCCO)O1,-3[16.7 µM],7,9,7&-1,0,-1,i,4
O=[N+]([O-])c1ccc(Oc2ccc(-c3cnc4ccccc4n3)cc2[N+](=O)[O-])cc1,-22,-10,-3,nt,-14,-1,i,-1
CCCN(CCC)C(C(=O)Nc1cccc(OC)c1)c1ccccc1 (stereo not drawn),5,-2,-4,-13,-4,-6,i,2
COc1ccc(C2(C)NC(=O)N(CC3CCCCC3)C2=O)cc1 (stereo not drawn),6,-5,6,2,-2,1,i,-13
CC(C(=O)NC1=NCCS1)N1C(=O)c2ccccc2C1=O (stereo not drawn),10,-9,-1,-1,-16,2,i,-17
COc1ccc(SCC(=O)c2cc(C)c(OC(=S)N(C)C)c(C)c2)cc1,-29,-14,-2,-17,-8,-3,i,-11
O=C(CSc1nc(O)c(C(c2ccccc2)c2ccccc2)c(=O)[nH]1)N1CCOCC1,-10,6,10,1,2,-1,i,-6
O=C(NCC1CCCO1)C(c1ccccn1)N(Cc1ccccc1Cl)C(=O)CN1C(=O)c2ccccc2S1(=O)=O (stereo not drawn),3,-20,-6,-8,2,-1,i,2
COc1ccc(CN2C(=O)C(CC(=O)NCCCCc3ccccc3)CC(C(=O)N(C(C)C)C(C)C)=C2C)cc1 (stereo not drawn),-28,nt,nt,19,-6,0,nt,nt
COc1ccc(C)cc1NC(=O)C(Sc1ccccc1)c1ccccc1 (stereo not drawn),nt,35,-4,nt,nt,nt,i,4
COc1ccc(N2CC(C(=O)O)CC2=O)cc1 (stereo not drawn),nt,nt,-2,-16,4,3,i,-6
COCCNC(=O)/C(C#N)=C/c1ccccc1Br,-3,-3,-7,nt,0,-3,i,-2
CCCCn1c(N)c(N(CC(C)C)C(=O)c2ccc(N3C(=O)CCC3=O)cc2)c(=O)[nH]c1=O,nt,-7,nt,nt,0,-3,i,nt
CCCCC(Sc1nc(N)c(NC(=O)c2ccc(OC)cc2)c(=O)[nH]1)C(=O)O (stereo not drawn),-15,5,-18,-3,3,1,i,4
CCCC(=O)Nc1ccc(-c2csc(NNC(C)=O)n2)cc1,?,0,-2,nt,5,1,i,-8
CC(C)N(Cc1ccccc1)C(=O)CN1c2cccc3cccc(c23)S1(=O)=O,-5,-9,nt,-14,-5,-1,nt,nt
CCN(CC)c1ccc2cc(C(=O)O)c(=O)oc2c1,-54,-5,-3,-13,3,9,i,5
C[C@H](CO)N1C[C@H](C)[C@@H](CN(C)Cc2ccc(Cl)c(Cl)c2)Oc2c(NS(=O)(=O)c3ccc(F)cc3)cccc2C1=O,4,-1,nt,17&6,-13,5,nt,nt

An excerpt. The share of hits here may be higher or lower than overall.
